# Bioassay records deposited in PubChem BioAssay by several laboratories.
# FGF22 binding = binders of human FGF22 protein, primary screen, FGF22 synaptogenesis inhibitor project, biophysical, thermal shift, single point; 1.5% of 340,000 active; AID 651658, 2012; Fibroblast growth factor 22 (Homo sapiens), Q9HCT0; recombinant FGF22 thermal shift, SYPRO orange fluorescence; percent of sucrose octasulfate shift, DMSO zero; calls only at 9.99 µM;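 active = melting point raised past a set limit in the mean and every replicate; inconclusive = no clear call; three in four hits are not shown here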
# Target sequence (Q9HCT0 whole entry, looked up): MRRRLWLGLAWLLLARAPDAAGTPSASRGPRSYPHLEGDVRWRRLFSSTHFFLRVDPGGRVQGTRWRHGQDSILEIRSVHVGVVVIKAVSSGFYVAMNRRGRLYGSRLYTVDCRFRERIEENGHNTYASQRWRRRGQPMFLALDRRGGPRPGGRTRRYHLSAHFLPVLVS
# E coli growth = E. coli growth inhibition, primary screen, OD600. Escherichia coli growth, 23 h; hits give low values. OD600 absorbance (no concentration beside the values). 0.21% of 330,000 active;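 active = OD600 absorbance below the run mean of sample wells minus 3.6 SD, in any replicate, cut at about 0.56 in these data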;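 also: stock transfer was 300 nL into about 60 µL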
# Vif TR-FRET = inhibitors of Vif binding to APOBEC3G peptide, primary screen, biochemical, TR-FRET, GST-Vif 1-94, biotin-A3G peptide, dose response retest (AID 1117319) | Virion infectivity factor (Human immunodeficiency virus type 1 group M subtype B (isolate … | TR-FRET GST-Vif / biotin-A3G peptide binding; higher % means a stronger effect; test concentration not given here; strong numbers were not always called active | inhibition, %, or IC50 in µM where a hit was titrated | 0.57% of 260,000 active;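 active = above the screen mean plus three standard deviations and confirmed in dose response; inconclusive = results disagree or hit not tested in dose response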;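 also: Vif residues 1-94 fused to GST binding biotinylated APOBEC3G peptide 110-148; 0% = full assay without inhibitor and 100% = GST in place of GST-Vif; retest series ran down from 100 µM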
# AF4-AF9 inh = inhibitors of AF4 peptide binding to AF9, primary screen, biochemical, AlphaScreen, biotin-AF4 peptide, FLAG-AF9, single point; AID 651704, 2012; 0.47% of 350,000 active; inhibition, % at 10 µM;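 active = every replicate reaching a set inhibition limit, whatever the replicate mean, cut at about 25% in these data; inconclusive = mean inhibition reaches that limit but some replicates miss it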;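 also: 0% = plate neutral control median and 100% = total signal loss; the record names both 10 and 1 µM as test concentration; the first replicate is given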
# Target sequence (P42568 whole entry, looked up): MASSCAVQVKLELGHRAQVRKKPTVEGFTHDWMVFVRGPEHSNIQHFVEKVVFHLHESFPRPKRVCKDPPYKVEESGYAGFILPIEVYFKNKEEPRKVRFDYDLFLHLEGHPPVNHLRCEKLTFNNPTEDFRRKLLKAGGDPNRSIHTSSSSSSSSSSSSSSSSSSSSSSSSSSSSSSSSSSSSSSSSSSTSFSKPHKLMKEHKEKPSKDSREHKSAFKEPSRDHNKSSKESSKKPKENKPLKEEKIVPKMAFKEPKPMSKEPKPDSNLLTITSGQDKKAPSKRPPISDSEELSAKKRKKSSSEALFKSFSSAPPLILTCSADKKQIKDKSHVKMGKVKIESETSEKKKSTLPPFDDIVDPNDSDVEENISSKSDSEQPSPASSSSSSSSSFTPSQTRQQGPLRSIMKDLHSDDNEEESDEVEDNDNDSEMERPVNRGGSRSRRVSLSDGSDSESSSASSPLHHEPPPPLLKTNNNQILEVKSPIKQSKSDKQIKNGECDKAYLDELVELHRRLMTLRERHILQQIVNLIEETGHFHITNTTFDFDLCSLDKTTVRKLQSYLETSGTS
# UCH37 DUB inh = inhibitors of human UCH37 deubiquitinase, primary screen, biochemical, Ub-AMC cleavage, fluorescence. inhibition, % (test concentration not listed). 0.33% of 330,000 active. purified proteasome/UCH37;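 active = mean of two replicates above 20%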;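 also: 0% = compound-free wells with enzyme and 100% = wells lacking proteasome; stock transfer was 100 nL into about 20 µL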
# Target sequence (Q9Y5K5 whole entry, looked up): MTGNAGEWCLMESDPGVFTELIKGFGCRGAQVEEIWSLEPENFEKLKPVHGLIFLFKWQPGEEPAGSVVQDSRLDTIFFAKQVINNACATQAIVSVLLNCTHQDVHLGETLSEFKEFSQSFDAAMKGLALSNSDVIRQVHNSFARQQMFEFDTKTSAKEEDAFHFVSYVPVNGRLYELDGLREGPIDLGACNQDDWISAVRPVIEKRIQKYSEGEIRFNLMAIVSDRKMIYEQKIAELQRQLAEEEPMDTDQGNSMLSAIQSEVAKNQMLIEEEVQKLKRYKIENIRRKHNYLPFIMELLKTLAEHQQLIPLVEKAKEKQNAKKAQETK
#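 Assay system: Proteasome-bound UCH37. Buffer or medium: pH 7.4 Tris-HCl (50 mM) with ovalbumin, ATP-MgCl2, DTT. Incubation: 30 min preincubation with enzyme, 25 min cleavage at room temperature. Measured by: fluorescence, ex 355 nm, em 460 nm. Read-out basis: percent inhibition. Control set: wells without proteasome as full block, compound-free enzyme plus substrate as uninhibited.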
# HNF4A DNA FP = change in binding of human HNF4A to DNA, primary screen, biochemical, fluorescence polarization, FITC-DNA. 1 h. activity change, % at 10 µM. 0.3% of 360,000 active. AID 1224865, 2016; in the data active = activity change above about 30%, passing the limit was not always enough;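 also: controls were the assay level and a saturating level of protein; the project sought stronger binding though the title names inhibitors; some compounds called inactive have numbers as strong as hits; positive values seem to mean higher polarization but the record does not say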
# RanGTP-Impb inh = inhibitors of RanGTP-importin-beta interaction, primary screen, biochemical, FRET, CFP-Ran, YFP-importin-beta, homogeneous; cell-free CFP-Ran/YFP-importin-beta FRET ratio; inhibition, % (no concentration beside the values); 1.1% of 300,000 active; AID 2216, 2009;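 active = most replicates above 15%; inconclusive = exactly half above 15%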;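 also: 0% = DMSO wells and 100% = Ran loaded with GDP instead of GTP; wells of about 40 µL received 100 nL stock; the first replicate is given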
# * marks the source's active call; other numbers are inactive results; i = inactive; u = inconclusive; x = not tested or not shown. Not all compounds are listed. The share of hits here may be higher or lower than overall.
SMILES,FGF22 binding,E coli growth,Vif TR-FRET,AF4-AF9 inh,UCH37 DUB inh,HNF4A DNA FP,RanGTP-Impb inh
Cc1ccc(S(=O)(=O)NCC(c2cccnc2)N2CCOCC2)cc1 (centres undefined),i,0.68,3%,-0.8,-1.1,-0.1,-1.8
Cc1nc(-c2ccccc2)sc1C1(C)CC(c2c(Cl)cccc2Cl)=NO1 (centres undefined),i,0.73,x,0.4,4.9,2.5,-0.1
CCC(=O)N1CCc2cc(S(=O)(=O)CCC(=O)N3CCN(c4ccccc4)CC3)ccc21,i,0.68,x,-2.1,1.3,-1.3,-2.1
O=C(Nc1ccc(Cl)cc1)C1C2C=CC3(O2)C1C(=O)N(CCCN1CCCCC1)C3C(=O)NC1CCCCC1 (centres undefined),i,0.67,x,0.2,2.3,-1.0,-8.0
NC(=O)CSc1nnc(NC(=O)c2ccc3ccccc3c2)s1,i,0.64,-3%,-1.9,-4.3,1.6,5.8
Cc1ccc(NC(=S)NCCO)c(C)c1,x,0.74,6%,x,2.9,-1.5,4.8
N#Cc1ccccc1Cn1c(=O)n(CCC(=O)NCc2ccco2)c(=O)c2ccccc21,x,0.7,-7%,x,-0.4,0.6,-2.1
CCc1cccc(NC(=O)CCCN2C(=O)NC(C)(C)C2=O)c1,i,0.66,0%,-0.6,3.2,0.4,x
[O-][n+]1ccc(OCc2ccccc2)cc1,i,0.7,x,-2.2,2.5,-0.3,-2.5
CC1=C(C(=O)OC2CCCCC2)C(c2ccco2)C2=C(CC(C)(C)CC2=O)N1 (centres undefined),x,0.79,-4%,x,-47,-1.9,3.0
COc1ccc(COC(=O)C2=C(C)NC(=O)NC2c2ccccc2F)cc1 (centres undefined),i,0.71,x,-4.3,3.3,-1.3,-1.6
O=C1NC2(CCCCCCC2)C(=O)N1Cc1ccc(F)cc1,i,0.69,-9%,0.2,1.6,4.8,6.7
CCc1cc(Cn2nc(-c3ccccc3)cc2C(=O)NCC2CC2)on1,i,0.65,x,-2.8,1.5,-3.5,1.3
CSc1nnc(-c2sc3cc(Cl)ccc3c2Cl)n1C,x,0.67,6%,x,-2.4,0.8,2.8
C=CCSc1nc2ccsc2c(=O)n1-c1ccccc1,i,0.69,0%,-1.7,-1.0,3.4,4.5
CN[C@@H](C)C(=O)NC[C@H]1O[C@@H](n2cnc3c(=O)[nH]c(N)nc32)[C@H](O)[C@@H]1O,i,x,x,-3.0,x,-0.7,x
CC(C)CC(c1nnnn1CC1CCCO1)N1CCN(c2cccc(Cl)c2)CC1 (centres undefined),x,0.8,-4%,x,2.7,-4.4,8.8
COc1ccc(NC(=O)CN2C(=O)NC3(CCCC3)C2=O)cc1OC,i,0.63,x,-0.6,4.1,0.1,-1.4
COc1ccc(C(=O)CN(C(=O)c2ccc(Cl)cc2)N2C(=O)C3CCCCC3C2=O)cc1 (centres undefined),x,0.73,-1%,x,3.9,3.4,2.1
Cc1ccc(C(=O)CSc2nc3ccc(C(=O)NCCN4CCCCC4)cc3c(=O)[nH]2)cc1,i,0.67,-4%,5.0,-0.5,5.4,7.8
CC(=O)N1CCN(c2ccccc2NC(=O)c2ccc(-c3cccc([N+](=O)[O-])c3)o2)CC1,i,0.71,x,4.9,5.8,-0.6,-2.8
O=C(Nc1ccc(Cl)cc1)C1(S(=O)(=O)c2ccccc2)CC1,i,0.69,-2%,-0.1,0.4,-3.9,x
O=C(COc1ccc2c3c(c(=O)oc2c1)CCC3)NCc1ccccn1,i,0.67,x,-2.5,-20,2.5,4.2
COCc1nnc(NS(=O)(=O)c2ccc(NC(C)=O)cc2)s1,x,0.66,-4%,x,0.8,-0.8,-6.5
c1ccc(Cn2nnc3cnccc32)cc1,i,0.65,3%,5.6,1.2,3.4,-1.9
C=C(C)c1cccc(C(C)(C)NC(=O)Nn2cnnc2)c1,i,0.74,3%,12,-1.8,1.4,1.9
COc1cc(C2C(C#N)=C(N)Oc3cc(C)n(CCc4ccccc4)c(=O)c32)cc2c1OCO2 (centres undefined),x,0.67,-57%,x,0.0,-0.1,7.5
Cc1ccccc1C(=O)Nc1ccnn1C1CCN(Cc2cccnc2)CC1,i,0.73,x,-16,-0.2,12,2.3
O=C(c1ccc(Br)o1)N1CCN(C23CC4CC(CC(C4)C2)C3)CC1,i,0.67,x,8.0,3.8,-2.8,1.3
Cc1c(Cl)cccc1NCC(=O)NN=C1CCCC1,i,0.64,10%,-2.3,2.2,-4.6,1.6

# Part of the list above in order of formula weight, descending:
SMILES,FGF22 binding,E coli growth,Vif TR-FRET,AF4-AF9 inh,UCH37 DUB inh,HNF4A DNA FP,RanGTP-Impb inh
Cc1ccc(C(=O)CSc2nc3ccc(C(=O)NCCN4CCCCC4)cc3c(=O)[nH]2)cc1,i,0.67,-4%,5.0,-0.5,5.4,7.8
CC(C)CC(c1nnnn1CC1CCCO1)N1CCN(c2cccc(Cl)c2)CC1 (centres undefined),x,0.8,-4%,x,2.7,-4.4,8.8
COCc1nnc(NS(=O)(=O)c2ccc(NC(C)=O)cc2)s1,x,0.66,-4%,x,0.8,-0.8,-6.5

# The results go on.
SMILES,FGF22 binding,E coli growth,Vif TR-FRET,AF4-AF9 inh,UCH37 DUB inh,HNF4A DNA FP,RanGTP-Impb inh
CC(C)(C)OC(=O)C[C@H]1C/C=C\C[C@@H](CC(=O)N(CCO)Cc2ccccc2)C(=O)N[C@@H](Cc2ccccc2)COC1=O,i,x,x,-28,-2.0,-7.6,x
CC(C)c1nc(SCC(=O)N2CCCCC2)c2c(=O)n(C)c(=O)n(C)c2n1,i,x,-6%,0.2,x,4.0,x
CC(=O)Nc1ccc(NC(=O)C(OC(=O)c2ccccc2)C(OC(=O)c2ccccc2)C(=O)O)cc1 (centres undefined),i,0.65,2%,-1.7,0.5,-1.0,5.7
O=C1/C(=C/c2cccs2)CCc2ccccc21,x,0.7,25%,x,0.9,3.9,0.5
COc1ccc(-c2nn(-c3ccccc3)cc2C(=O)NCCCn2ccnc2)cc1,i,0.68,-2%,11,3.4,1.6,4.4
CCN1CCN(c2c(Cl)cccc2NC(=O)c2ccc([N+](=O)[O-])o2)CC1,i,x,x,1.4,x,2.6,5.0
Cc1cnc(=O)[nH]c1SCc1ccc(C(F)(F)F)cc1,i,0.67,-3%,1.7,8.0,3.7,0.4
CC(=O)Nc1ccc(NC(=O)C(C)OC(=O)CNC(=O)c2ccc(-c3ccccc3)cc2)cc1 (centres undefined),i,0.63,-1%,-1.6,0.6,-0.6,-1.2
CC(C)Cc1nnc(NC(=O)CSc2ccccn2)s1,x,0.68,2%,x,0.6,2.9,-3.2
CC(=O)N1CCN(CC(=O)Nc2cccc(S(=O)(=O)N3CCCCCC3)c2)CC1,i,0.71,13%,-0.7,4.5,2.8,1.4
CCCCn1c(N)c(N(CCOC)C(=O)C2CCN(S(=O)(=O)c3ccc(C)cc3)CC2)c(=O)[nH]c1=O,i,0.64,1%,-0.2,1.2,3.2,-1.3
O=C(CCCCCCC(=O)Nc1ccccc1)NO,i,0.68,x,-0.8,4.7,2.5,-1.2
COc1ccc(S(=O)(=O)Nc2cc(C(=O)NC(C)C)ccc2N2CCOCC2)cc1,x,0.67,1%,x,0.4,3.5,1.6
COc1ccc(-c2oc(NC(=O)CSc3nncn3C)c(C#N)c2-c2ccc(OC)cc2)cc1,x,0.77,-2%,x,-9.8,-1.3,2.8
O=C(c1ccc2nccnc2c1)N1CCN(c2cccc(C(F)(F)F)c2)CC1,i,0.67,-4%,3.2,5.1,4.0,x
CC(OC(=O)C1CSC2(c3ccc(F)cc3)CCC(=O)N12)C(=O)NC(N)=O (centres undefined),i,0.69,-1%,1.7,0.8,2.6,u
Cc1ccc(C(=O)NCCNC(=O)c2ccccc2)cc1,i,0.69,3%,-6.1,1.5,-0.2,-0.5
CCc1cc(=O)oc2cc(OS(C)(=O)=O)ccc12,x,0.71,-7%,x,-68,0.2,-2.5
CCOC(=O)c1ccc(NS(=O)(=O)c2ccc(Cl)nc2)cc1,x,0.64,0%,x,-3.6,x,8.0
CCCOC(=O)C(C)Sc1n[nH]c(=O)[nH]c1=O (centres undefined),i,0.69,-4%,-10,1.5,0.7,-5.8
CCN(CC)S(=O)(=O)c1csc(C(=O)NCc2ccccc2)c1,x,0.67,2%,x,2.3,1.8,-2.4
CC1(C)Cc2c(sc3nc(SCC(=O)NCc4ccccc4)n(-c4ccccc4)c(=O)c23)CS1,x,0.75,1%,x,-0.6,-2.5,6.7
O=c1cc(-c2ccccc2Cl)oc2c(Br)ccc(O)c12,x,0.68,1%,x,-2.8,-1.0,6.8
CN(C)c1cccc2c1c(NS(=O)(=O)c1cn(C)cn1)nn2C,i,0.74,u,-4.5,-26,-0.9,6.3
COc1cccc(CNC(=O)CCCC(=O)Nc2cccc([N+](=O)[O-])c2)c1,i,0.7,x,1.5,3.7,-2.2,0.2
O=C(O)Cn1nc(C(F)(F)F)c2c1CCC2,x,0.66,1%,x,-0.4,4.2,4.8
COC(=O)CCNC(=O)c1nn(Cc2ccccc2)c(=O)c2ccccc12,i,0.7,x,-2.9,1.5,1.8,2.6
C=CCn1c(SCc2cccc3ccccc23)nnc1-c1cccnc1,x,0.74,23%,x,5.0,3.0,-5.0
O=C(CN1N=C(c2ccc(Cl)cc2)CCC1=O)NCc1cccnc1,x,0.72,14%,x,5.3,-0.2,4.0
O=C(Nc1ccsc1C(=O)NC1CCCCC1)c1ccccc1,x,0.72,u,x,-18,-0.1,-3.1
N#Cc1c(-c2ccccc2)nc(SCc2cccc(C(F)(F)F)c2)[nH]c1=O,i,0.62,x,0.3,14,-5.6,-1.4
COCCCNC(=O)c1ccccc1C(F)(F)F,i,0.71,2%,-6.1,0.7,-5.8,-2.0
Clc1cccc(CSc2ccc(-c3cccnc3)nn2)c1,i,0.67,-2%,2.3,5.6,5.4,5.6
CC(=O)c1cc2c(cc1C)CCCC2(C)C,i,0.69,x,1.0,3.5,4.8,x
COc1nc(Oc2ccc(=O)n(C)n2)nc(N(C)C)n1,x,0.69,16%,x,30*,1.6,-1.1
CSc1ncc(CN2CCCC(C(=O)Nc3ccc(-c4ccco4)cc3)C2)cn1 (centres undefined),i,0.71,-5%,5.2,0.7,-15,-2.9
Cc1cc(Cl)ccc1OC(C)C(=O)Nc1cccc(S(=O)(=O)N2CCOCC2)c1 (centres undefined),i,x,-1%,3.4,x,0.3,x
CCc1cccc(NC(=O)[C@@H]2CCCN2C2=NS(=O)(=O)c3ccccc32)c1,i,0.69,5%,1.4,-0.7,3.5,x
COc1ccc(NC(=O)CCN2C(=O)/C(=C/c3ccc4c(c3)OCO4)SC2=S)cc1,i,0.69,10%,9.6,2.2,8.1,-0.9
COc1ccc(OC)c2[nH]c(=O)c(CCNC(C)=O)cc12,i,0.72,7%,-0.7,1.5,-0.1,0.0
CC(=O)Nc1ccc(C2=CC(=O)CC(C)(C)C2)cc1,i,0.66,x,0.3,-1.6,1.2,x
N=c1n(CC(=O)c2ccc([N+](=O)[O-])cc2)c2ccccc2n1Cc1ccccc1Cl,x,0.64,-1%,x,5.8,5.9,x

# Retrieved one by one from the entries so far:
SMILES,FGF22 binding,E coli growth,Vif TR-FRET,AF4-AF9 inh,UCH37 DUB inh,HNF4A DNA FP,RanGTP-Impb inh
Cc1cc(Cl)ccc1OC(C)C(=O)Nc1cccc(S(=O)(=O)N2CCOCC2)c1 (centres undefined),i,x,-1%,3.4,x,0.3,x
CC(=O)c1cc2c(cc1C)CCCC2(C)C,i,0.69,x,1.0,3.5,4.8,x
